# Menin MLL FP FL = inhibitors of human menin-MLL interaction, wild-type MLL peptide; Fluorescence polarization, fluorescein-MLL peptide displacement from menin; FP activity change, % at 61.4 µM; 290,000 tested, under 10 active; inconclusive = falling polarisation curve, or a change in total fluorescence; inactive = total fluorescence flat and polarisation flat or rising; no compound was filed as active; the % refers to the polarisation; negative = inhibition;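 further: % of control where 0% means no effect; inhibitors lower the polarisation; unlabelled MLL peptide was the positive control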
# TRPV1 PAM = human TRPV1 potentiation; Q8NER1; TRPV1-expressing cells, Fluo-8 calcium influx, capsaicin EC20 potentiation; host cell line not named in the record; control for the full effect not named in the record; potentiation, % at 8.33 µM; actives 0.02% (n = 320,000); AID 540277; active means potentiation above 80%; inconclusive means 30% to 80%; inactive means below 30%; further: 0% is about no effect
# Target sequence (Q8NER1 whole entry, looked up): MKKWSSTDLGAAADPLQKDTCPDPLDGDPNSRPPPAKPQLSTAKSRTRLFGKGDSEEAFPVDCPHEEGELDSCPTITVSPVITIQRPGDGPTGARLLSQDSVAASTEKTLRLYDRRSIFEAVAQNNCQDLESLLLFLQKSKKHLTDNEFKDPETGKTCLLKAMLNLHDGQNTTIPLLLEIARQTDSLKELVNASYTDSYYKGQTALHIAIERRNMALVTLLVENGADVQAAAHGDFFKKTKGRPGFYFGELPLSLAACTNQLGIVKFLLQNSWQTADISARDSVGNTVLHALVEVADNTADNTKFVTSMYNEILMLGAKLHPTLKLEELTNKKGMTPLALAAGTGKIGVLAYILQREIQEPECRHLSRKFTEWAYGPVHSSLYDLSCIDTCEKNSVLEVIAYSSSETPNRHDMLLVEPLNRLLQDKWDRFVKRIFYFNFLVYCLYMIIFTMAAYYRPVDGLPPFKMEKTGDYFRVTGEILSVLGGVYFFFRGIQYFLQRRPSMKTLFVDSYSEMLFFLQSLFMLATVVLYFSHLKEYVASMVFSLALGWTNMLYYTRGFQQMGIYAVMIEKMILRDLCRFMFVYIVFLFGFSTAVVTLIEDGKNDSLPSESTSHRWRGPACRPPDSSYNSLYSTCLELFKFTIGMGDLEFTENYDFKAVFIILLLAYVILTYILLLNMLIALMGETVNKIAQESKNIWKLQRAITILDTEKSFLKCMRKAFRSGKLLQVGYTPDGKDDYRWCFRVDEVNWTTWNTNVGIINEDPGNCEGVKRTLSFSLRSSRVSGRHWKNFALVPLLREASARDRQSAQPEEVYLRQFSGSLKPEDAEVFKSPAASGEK
#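 Cells expressing TRPV1 were dye-loaded with Fluo-8 and read kinetically: 10 s baseline, 3 min after compound (agonist portion), then 2 min after EC20 capsaicin (allosteric enhancer portion). Calcium-bound dye fluorescence at 480/520 nm.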
# ClpP mod = qHTS Assay for Activators of ClpP; AID 651965, 2013; purified B. subtilis ClpP, FRET peptide cleavage, 20 min; ATP-dependent Clp protease proteolytic subunit (Bacillus subtilis (strain 168)), P80244; Potency, µM (top dose mostly 57.5 µM), for the others: top-dose activity change, negative = active; actives 1.9% (n = 340,000); active = well fitted falling curve with a large enough effect; inconclusive = small, poorly fitted or top-dose-only effect; inactive = no such curve, though single readings can be large or run the other way; further: potency means the concentration at half of the fitted maximal effect; the source files actives as falling curves though it sought activators and does not explain the sign; nearly all actives have a fitted effect of over 65% in size; many hits overshoot -100%
# Target sequence (P80244 whole entry, looked up): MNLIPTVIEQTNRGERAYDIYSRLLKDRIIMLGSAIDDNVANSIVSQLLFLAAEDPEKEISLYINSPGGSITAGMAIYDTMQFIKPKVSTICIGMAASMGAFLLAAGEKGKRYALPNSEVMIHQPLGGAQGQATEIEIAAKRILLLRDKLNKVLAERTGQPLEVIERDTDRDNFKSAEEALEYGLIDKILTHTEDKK
#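 ClpP 10 microg/mL final, pH 8 Tris/KCl buffer with BSA, glycerol, Tween-20; compound pinned in; FRET-FV substrate; RT 20 min; Ex320/Em430; ΔFRET vs ADEP 5.8 microM, DMSO, no enzyme.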
# gsp agonist = agonists of gsp mutant (McCune-Albright syndrome); gsp mutant cells, cAMP HTRF, 30 min; control for the full effect not named in the record; Potency, µM (doses to about 76.9 µM), inactives show at the highest dose activation (cAMP increase), most hits filed as activators; actives 0.13% (n = 340,000); AID 624287; active = well fitted activation curve with a large enough effect; inconclusive = small, poorly fitted or top-dose-only effect, or another doubt; inactive = no such curve, though single readings can be large or run the other way; cell line not stated here;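 further: phosphodiesterase inhibitor Ro 20-1724 added with compounds to block cAMP breakdown; potency means the concentration at half of the fitted maximal effect; nearly all actives have a fitted effect of over 60% in size; about a fifth of the inactives were tested at one dose only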
#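 Cells in DMEM/10% FBS with G418 were pretreated with compounds in DMSO plus […] (300 uM stock) for 30 min at 37C. cAMP was measured by HTRF (cAMP-d2 plus anti-cAMP antibody-K) after 30 min at room temperature.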
# Sfp inh = inhibitors of Bacillus subtilis Sfp phosphopantetheinyl transferase | Biochemical Sfp PPTase activity, qHTS | Potency, µM, for inactives: max response, negative = inhibition, most hits filed as inhibitors | actives 3.5% (n = 310,000) | Q9F4F7; active means well fitted inhibition curve with a large enough effect; inconclusive means small, poorly fitted or top-dose-only effect, or another doubt; inactive means no such curve, though single readings can be large or run the other way;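 further: the enzyme is Sfp with the accession as filed and its product quenches rhodamine fluorescence; potency means the concentration at half of the fitted maximal effect; 0% = enzyme reaction without inhibitor and -100% = no enzyme wells; top concentration of the series not given in the record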
#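 Fluorescence-quenching assay with 15 nM Sfp, 5 uM rhodamine-CoA and 12.5 uM BHQ-2-labelled ybbR peptide in pH 7.6 Hepes/MgCl2 buffer. Enzyme was pre-incubated with compound for 15 min at room temperature. Rate was taken from the 30-min fluorescence change (525/598 nm).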
# CtBP-E1A inh = blocks the CtBP interaction with E1A | AlphaScreen GST-E1A/His-CtBP binding, 1536-well; stronger effect = lower value; control for the full effect not named in the record | activity change, % (test concentration not listed) | actives 0.49% (n = 340,000) | AID 651724; in the data active means activity change below about -65%; inconclusive means about -30% to -65%; inactive means above about -30%; further: on the % scale 0 is the no-effect control and ±100 the full control effect; compound concentration not given in the record
#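 GST-E1A and His-tagged CtBP (125 nM each as 5X stock) were preincubated with pin-transferred compound for 2 h at 37 °C in the dark, then glutathione donor and nickel acceptor beads were added for 1 h before AlphaScreen reading.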
# gsp antagonist = antagonists of gsp mutant (McCune-Albright syndrome) | gsp-mutant cells, cAMP HTRF, 30 min; control for the full effect not named in the record | actives 0.4% (n = 340,000) | Potency, µM (doses to about 76.9 µM), for the others: at the highest dose activity change, negative = inhibition, actives largely listed as inhibitors; active = falling curve of any shape with a large fitted effect; inconclusive = falling curve, mostly with a smaller effect; inactive = flat or rising curve; cell line not stated here;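 further: intracellular cAMP measured with PDE inhibitor Ro 20-1724 present during compound exposure; potency means the concentration at half of the fitted maximal effect; on the % scale 0 is the no-effect control and ±100 the full control effect; nearly all actives have a fitted effect of over 65% in size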
#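 G418-selected cells were plated in DMEM/10% FBS for 16-24 h at 37C, then treated with compounds plus the PDE inhibitor […] (300 uM solution added) for 30 min at 37C. Intracellular cAMP was measured by HTRF after 30 min lysis at room temperature.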
# Starred values were filed as active, the others as inactive; ? = inconclusive; nt = not tested or not shown; & = joins results of further samples; [ ] = dose if it differs, or a comment.
mol,Menin MLL FP FL,TRPV1 PAM,ClpP mod,gsp agonist,Sfp inh,CtBP-E1A inh,gsp antagonist
CCC(CC)COC(=O)C1=C(C)NC(=O)NC1c1ccc(N(C)C)cc1 (centres undefined),12,-15,-4.4%,-3%,27%,nt,-8%
CC(=O)Nc1ccc(S(=O)(=O)Nc2ccc(Cc3ccncc3)cc2)cc1,-6.0,27,nt,7%,16%,-4,-4%
COc1ccccc1CCNC(=O)C(=O)Nc1cc2c3c(c1)CC(=O)N3CCC2,nt,3,-17%,4%,nt,-6,-3%
CCC(=C(c1ccc(OC)cc1)c1ccc(OC)cc1)c1cn(CC(O)CN(CCO)CCO)c2ccccc12 (centres undefined),-3.1,12,-5.0%,-1%,?,nt,1%
CC(=O)N1CCN(C(=O)COC(=O)c2oc3ccccc3c2C)CC1,nt,16,-26%,-23%,nt,0,8%
Cc1cc(NC(=O)CCC(=O)N(Cc2ccccc2)C2(C(=O)NC3CCCCC3)CCCC2)no1,1.3,1,nt,-8%,-7%,3,-4%
N#CCCn1cc(C(=O)Nc2ccc(C(=O)O)cc2)c(-c2cccc(Br)c2)n1,-1.3,-2,-0.1%,2%[15.4 µM],5%,-2,5%
O=C1Nc2ccc(Cl)cc2[C@@](C#CC2CC2)(C(F)(F)F)O1,-5.5,3,nt,nt,17%,nt,nt
Cc1ccc(C)c(CSC2=NCCN2C(=O)c2cccs2)c1,-6.2,0,1.3%,-7%[15.4 µM],6%,6,26%
CCCNC(=S)Nc1ccc(Oc2ccccc2)cc1,2.2,-6,1.4%,-72%[inhibitor],-8%,-5,-8%
Cc1cccc(NC(=O)CSc2nnc(-c3ccco3)o2)c1C,1.2,-13,1.4%,0%,11%,1,0%
CCN(CC)S(=O)(=O)c1cc(C(=O)Nc2cc(C)[nH]n2)ccc1Cl,7.0,-16,1.5%,10%,1%,13,-4%
O=C(CSc1ncnc2nc[nH]c12)Nc1ccc(Br)cc1Cl,6.1,11,0.4%,?,1%,nt,8%
COc1ccc(CCNc2nc(C)cc(C)n2)cc1OC,1.3,-5,nt,-27%,6%,1,4%
Cc1ccc(S(=O)(=O)Nc2ccc3c(c2)nc2n3CCN(Cc3ccccc3)C2)cc1,4.7,-2,-17%,?,2%,-9,-18%
N#Cc1c(NC(=O)CN2C(=O)c3ccccc3C2=O)oc(-c2ccccc2)c1-c1ccccc1,nt,nt,-1.0%,-26%,nt,-22,-7%
CCC(C)NC(=O)c1oc2ccc(S(=O)(=O)N3CCC4(CC3)OCCO4)cc2c1C (centres undefined),-2.5,-2,nt,-8%[15.4 µM],-1%,-3,-15%
Cc1[nH]c2ccccc2c1Cc1nnc(SCc2ccccc2)o1,1.1,?,-1.3%,1%,-5%,-9,0%
COc1ccccc1OCCCN1C(=O)C(=O)c2cccc(C)c21,2.0,-16,-0.3%,-2%,1%,-7,18%
CCCCNC(=O)c1ccc2c(c1)ncn2C1CCCC1,-0.4,-4,-0.4%,-2%,8%,5,-8%
COc1ccccc1CNC(=O)C1CCN(S(=O)(=O)c2cccc([N+](=O)[O-])c2)CC1,-1.5,-1,nt,-7%[15.4 µM],10%,-5,2%
CN1CCN(C(=O)/C=C\c2ccc(Cl)cc2)CC1,0.7,-15,-1.2%,8%,6%,7,13%
Cc1cnc(CNC(=O)C2CCC(=O)N(Cc3ccc(Cl)cc3)C2)[nH]1 (centres undefined),nt,8,2.1%,-1%[15.4 µM],11%,-6,12%
COc1ccccc1C(=O)N/C(=C\c1cn(C)c2ccccc12)C(=O)NCCCN1CCOCC1,nt,11,-4.6%,1%,-11%,nt,-22%
COc1ccc(C(=O)NC(=S)Nc2ccc3oc(=O)ccc3c2)cc1OC,5.8,5,3.0%,-55%[inhibitor],11%,-2,11%
Cc1cc(C)n(C(CC(=O)N2CCc3ccccc3C2)C(=O)O)n1 (centres undefined),-0.5,8,-14%,4%,10%,8,1%
O=C(CC1SC(=O)N(c2ccccc2)C1=O)Nc1ccc(Br)cc1 (centres undefined),6.8,4,0.4%,-3%[15.4 µM],-24%,6,7%
COCCNS(=O)(=O)c1ccc(F)c(OC)c1,-0.4,-3,1.7%,1%,-3%,-3,-1%
O=C(NCCc1ccccn1)c1nc(Cn2cc(Br)cn2)no1,-0.1,-12,nt,14%[15.4 µM],17%,7,5%
COC(=O)CC(c1ccc(C(C)C)cc1)n1cccc1 (centres undefined),-0.8,9,nt,29%,15%,-1,-7%
Cc1cccc(NC(=O)CNC(=O)Cc2ccc(S(=O)(=O)N3CCOCC3)s2)c1C,nt,23,0.5%,-11%,nt,nt,-2%
COC(=O)c1ccc(COc2ncnc3c(Cl)cc(Cl)cc23)o1,0.6,-1,-0.5%,16%,15%,4,-12%
CC(C)CC(NC(=O)C(CC(C)C)NC(=O)C(Cc1ccc(OCc2ccccc2)cc1)NC(=O)OC(C)(C)C)C(N)=O (centres undefined),-0.6,-2,nt,11%,5%,6,-3%
Cc1ccc(N=Nc2c(N)[nH]n3c(=O)cc(-c4ccccc4)nc23)cc1,2.5,0,28µM*,0%,7%,6,0%
O=C(Nc1ccc(Oc2cccnc2)cc1)c1ccccc1F,3.9,-17,-3.9%,-35%[inhibitor],21%,-6,-16%
CC(C)(C)OC(=O)N[C@@H](C(=O)OC(C)(C)C)c1ccccc1,nt,-25,-1.3%,0%,nt,3,-3%
Cc1nc2nc[nH]n2c(=O)c1C/C=C/c1ccccc1,0.5,0,nt,-8%,2%,-11,-5%
COC(=O)C1=C(C)Nc2c(c(=O)n(C)c(=O)n2C)C1c1ccc(Cl)cc1 (centres undefined),-2.1,5,-6.9%,-1%,-3%,-5,19%
Cc1ccc(/C=N/n2c(-c3ccc(Cl)cc3)n[nH]c2=S)o1,0.8,3,-7.9%,-39%[inhibitor],-5%,-21,-12%
CCOC(=O)c1c(C)c(C(=O)NCCN2CCOCC2)c(C)n1C,3.7,-16,3.4%,-3%,-1%,-4,8%
CCC1Nc2ncnc(N3CCCCC3)c2N(Cc2ccc(Br)cc2)C1=O (centres undefined),nt,-9,-0.8%,-2%,nt,-2,-7%
CC1CCCN(S(=O)(=O)c2ccc(S(=O)(=O)NC(C)c3cccs3)cc2)C1 (centres undefined),?,-15,-1.7%,0%,28%,0,-9%
Cc1ccc2ncc(NC(=O)c3ccc(F)cc3)c(=O)n2c1,0.9,-19,-0.7%,-29%,13%,-8,5%
CCc1ccc(N/C(SCc2ccccc2C)=C(/C#N)C(=O)NCc2ccco2)cc1,4.8,4,-10%,12%,0%,-9,-8%
C[n+]1ccc(/C=C/c2cccs2)cc1,0.1,18,-1.4%,?,-2%,-1,-5%
Cc1[nH]nc2c1C(=O)CC(C)(C)C2,1.2,-9,-1.5%,-6%,2%,0,1%
O=C(CN1C(=O)COc2ccccc2C1=O)c1ccc2c(c1)OCCO2,nt,-3,4.8%,-6%,4%,nt,-1%
COc1cccc(C(=O)CC(C(=O)O)c2ccc(Cl)cc2)c1 (centres undefined),-2.7,-13,0.4%,-2%,5%,5,-8%
O=c1[nH]c2c(c(=O)[nH]1)CCCCCC2,nt,nt,1.2%,16%,nt,16,-12%
COc1ccc([C@H]2CN(c3ccc(OC)cc3)C(=O)[C@@H]2CC(=O)Nc2ccc(Br)cc2)cc1,nt,nt,-1.4%,-72%[inhibitor],nt,-1,nt

# Later entries
mol,Menin MLL FP FL,TRPV1 PAM,ClpP mod,gsp agonist,Sfp inh,CtBP-E1A inh,gsp antagonist
Cc1c(C#N)c(O)n(CCO)c(=O)c1N=Nc1ccc(S(N)(=O)=O)cc1,?,-3,1.1%,15%,1%,-5,-1%
CCC(C(=O)OCC(=O)Nc1cc(OC)ccc1OC)c1ccccc1 (centres undefined),-2.3,-6,nt,0%,1%,-4,-7%
CC1Cc2ccccc2N1S(=O)(=O)c1cccc(C(=O)N2CCN(c3ncccn3)CC2)c1 (centres undefined),0.5,-8,nt,30%,6%,-14,-19%
COc1ccc(C(=O)C2CC2c2ccc3c(c2)OCO3)cc1 (centres undefined),-0.9,28,nt,?,-5%,14,-5%
CN(C)CCN(C(=O)c1ccc(C(=O)c2ccccc2)cc1)c1nc2cc3c(cc2s1)OCCO3,-4.3,-3,-0.7%,2%,?,-13,-16%
Cc1cccc(NC(=O)c2cn(-c3ccccc3)nc2-c2ccccc2)c1,11,4,?,-12%,9%,1,-11%
O=C(Cn1nc([N+](=O)[O-])nc1Br)NC1CCCCC1,2.7,20,0.4%,-10%[15.4 µM],16%,15,23%
CCN(CC)CCOC(=O)c1ccc(NC(=O)CCNC(=O)Cn2ccc3ccccc3c2=O)cc1,1.8,3,-6.4%,7%,15%,4,8%
CN(Cc1ccccc1)C(=O)C1CCCN(Cc2ccc(Cl)cc2)C1 (centres undefined),5.3,11,11µM*,?,?,24,12%
CCOC(=O)CN1C(=O)N(CC)C(C)=C(C(=O)OC)[C@@H]1c1ccccc1,-4.8[11.7 µM],-13,0.9%,nt,-1%&5%,8,7%
CCCCS(=O)(=O)NC1=NCN(Cc2ccco2)CN1,2.6,-2,0.7%,13%,?,20,17%
COC(=O)C1(C(=O)OC)NOC2C(=O)N(c3ccc(Cl)cc3Cl)C(=O)C21 (centres undefined),2.5,0,-2.4%,8%,15%,8,1%
CCCCN1C(=O)C(CC(=O)NC(c2ccccc2)c2ccccc2)CC(C(=O)N(C)C)=C1C (centres undefined),nt,nt,-1.8%,-10%,nt,5,nt

# Assay outcomes (PubChem)
